UCH37 inh – human UCH37 deubiquitinating enzyme inhibition. Q9Y5K5. purified proteasome/UCH37, Ub-AMC cleavage fluorescence. inhibition, % (concentration not given with the values). actives 0.33% (n = 330,000). AID 588478;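 active = mean of two replicates above 20%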;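 also: 0% = compound-free wells with enzyme and 100% = wells lacking proteasome; stock transfer was 100 nL into about 20 µL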
Target sequence (Q9Y5K5 whole entry, looked up): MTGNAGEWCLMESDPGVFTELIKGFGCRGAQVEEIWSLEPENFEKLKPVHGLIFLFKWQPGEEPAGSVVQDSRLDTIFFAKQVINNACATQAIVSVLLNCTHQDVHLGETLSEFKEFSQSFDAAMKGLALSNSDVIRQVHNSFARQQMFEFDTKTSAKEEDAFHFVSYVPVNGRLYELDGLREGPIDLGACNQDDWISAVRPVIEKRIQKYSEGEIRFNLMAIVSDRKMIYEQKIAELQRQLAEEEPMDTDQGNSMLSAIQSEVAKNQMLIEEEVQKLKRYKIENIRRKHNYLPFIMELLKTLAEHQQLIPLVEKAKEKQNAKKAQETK
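Signal – fluorescence, ex 355 nm, em 460 nm · System – Proteasome-bound UCH37 · Input – 0.15 nM proteasome as dispensed · Timing – 30 min preincubation with enzyme, 25 min cleavage at room temperature · Read-out basis – percent inhibition of cleavage signal versus uninhibited and no-proteasome wells · Medium – Tris-HCl pH 7.4 with ATP-MgCl2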
AF4-AF9 inh – blocks AF4 peptide binding to human AF9; AlphaScreen, biotin-AF4 peptide binding to FLAG-AF9; inhibition, % at 10 µM; actives 0.47% (n = 350,000); AID 651704;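 active = every replicate reaching a set inhibition limit, whatever the replicate mean, cut at about 25% in these data; inconclusive = mean inhibition reaches that limit but some replicates miss it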;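 also: 0% = plate neutral control median and 100% = total signal loss; the record names both 10 and 1 µM as test concentration; the first replicate is given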
FGF22 binding – binders of recombinant human FGF22 by thermal shift. Q9HCT0. SYPRO orange fluorescence; percent of sucrose octasulfate shift, DMSO zero. calls only at 9.99 µM. actives 1.5% (n = 340,000). AID 651658;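 active = melting point raised past a set limit in the mean and every replicate; inconclusive = no clear call; three in four hits are not shown here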
Target sequence (Q9HCT0 whole entry, looked up): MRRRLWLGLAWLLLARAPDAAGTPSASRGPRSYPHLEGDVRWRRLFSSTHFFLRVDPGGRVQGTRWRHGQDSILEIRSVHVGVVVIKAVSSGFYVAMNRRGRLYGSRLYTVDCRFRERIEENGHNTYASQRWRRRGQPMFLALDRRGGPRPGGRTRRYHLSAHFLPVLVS
RanGTP-Imp inh – disruptors of Ran-importin-beta complex formation – biochemical, FRET, CFP-Ran, YFP-importin-beta, homogeneous, primary screen; actives 1.1% (n = 300,000); cell-free CFP-Ran/YFP-importin-beta FRET ratio; inhibition, % (test concentration not listed); AID 2216;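 active = most replicates above 15%; inconclusive = exactly half above 15%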;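 also: 0% = DMSO wells and 100% = Ran loaded with GDP instead of GTP; wells of about 40 µL received 100 nL stock; the first replicate is given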
HNF4A DNA FP – change in binding of human HNF4 alpha to DNA; HNF4a-FITC DNA binding, fluorescence polarization, 1 h; AID 1224865; activity change, % at 10 µM; actives 0.3% (n = 360,000); P41235; in the data active = activity change above about 30%, passing the limit was not always enough;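 also: controls were the assay level and a saturating level of protein; the project sought stronger binding though the title names inhibitors; some compounds called inactive have numbers as strong as hits; positive values seem to mean higher polarization but the record does not say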
Target sequence (P41235 whole entry, looked up): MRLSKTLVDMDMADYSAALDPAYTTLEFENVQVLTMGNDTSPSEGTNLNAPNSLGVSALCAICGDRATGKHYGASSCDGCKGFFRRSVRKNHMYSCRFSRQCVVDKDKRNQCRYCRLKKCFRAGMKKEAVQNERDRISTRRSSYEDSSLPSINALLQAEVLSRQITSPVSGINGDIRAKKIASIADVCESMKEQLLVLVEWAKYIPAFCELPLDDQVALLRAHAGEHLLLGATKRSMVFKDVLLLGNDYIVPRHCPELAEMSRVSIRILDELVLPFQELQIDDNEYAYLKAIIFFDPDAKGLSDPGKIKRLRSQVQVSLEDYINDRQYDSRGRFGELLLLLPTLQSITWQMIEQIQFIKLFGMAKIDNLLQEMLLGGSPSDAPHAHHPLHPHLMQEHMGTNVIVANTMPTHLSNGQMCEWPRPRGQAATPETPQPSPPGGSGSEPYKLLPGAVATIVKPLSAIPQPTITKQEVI
Vif A3G – HIV-1 Vif–A3G interaction blockers – biochemical, TR-FRET, GST-Vif 1-94, biotin-A3G peptide, dose response retest, primary screen (AID 1117319). TR-FRET GST-Vif / biotin-A3G peptide binding; higher % means a stronger effect; test concentration not given here; strong numbers were not always called active. one-dose inhibition, %; IC50 in µM for titrated hits. actives 0.57% (n = 260,000);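 active = above the screen mean plus three standard deviations and confirmed in dose response; inconclusive = results disagree or hit not tested in dose response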;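 also: Vif residues 1-94 fused to GST binding biotinylated APOBEC3G peptide 110-148; 0% = full assay without inhibitor and 100% = GST in place of GST-Vif; retest series ran down from 100 µM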
Ecoli growth – inhibitors of Escherichia coli growth. actives 0.21% (n = 330,000). OD600 absorbance (test concentration not listed). OD600, 23 h; hits give low values;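 active = OD600 absorbance below the run mean of sample wells minus 3.6 SD, in any replicate, cut at about 0.56 in these data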;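 also: stock transfer was 300 nL into about 60 µL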
Active calls of the source: *; i = inactive; ? = inconclusive; · = not tested or not shown; + = active, no number. Not all compounds are listed; count on the stated rates, not on these rows.

FGF22 binding	Vif A3G	AF4-AF9 inh	UCH37 inh	RanGTP-Imp inh	Ecoli growth	HNF4A DNA FP	Compound
·	15%	·	5.2	0.5	0.73	4.5	Cc1ccc(C(C)C)c(OCC(=O)OCc2c(C)noc2C)c1
i	·	0.5	i	8.1	0.6	3.9	CNc1cc(C)c(C#N)c2nc3ccccc3n12
·	-18%	·	-3.9	2.3	0.68	1.5	O=C(O)c1ccccc1C(=O)Nc1ccc(-c2csc(-c3ccccc3)n2)cc1
i	1%	-2.3	4.5	-2.4	0.71	3.7	Cc1ccc(CCNC(=O)C2CCCN(S(=O)(=O)c3cccs3)C2)cc1 (stereo not given)
i	·	2.2	2.5	0.0	0.65	3.9	O=C(COC(=O)c1ccc2c(c1)C(=O)N(Cc1ccncc1)C2=O)Nc1cccc2ccccc12
+	·	0.3	·	-2.9	·	2.4	Cc1cc(N/N=C/c2ccc(Cl)cc2)nc(NCc2ccccc2)n1
·	0%	·	-1.2	0.3	0.66	2.8	CCc1nnc(NC(=O)CSc2nnc(C)n2CC2CCCO2)s1 (stereo not given)
·	·	·	6.7	0.5	0.78	6.8	CCOC(=O)Cn1c(=O)c(-c2ccccc2NCc2ccccc2)nc2ccccc21
i	·	0.8	·	·	·	0.8	COc1ccc([C@H]2CN(c3ccccc3)C(=O)[C@@H]2CC(=O)Nc2ccccc2)cc1
i	-6%	0.8	6.5	5.6	0.71	6.2	Cc1c(/C=C/C(=O)c2ccccc2O)cnn1C
·	-1%	·	1.1	1.4	0.73	2.7	CCC(C)C(NC(=O)C1CCC(C)CC1)C(=O)NCc1ccccn1 (stereo not given)
i	·	-3.2	0.1	·	0.71	-2.8	CN(CC(=O)Nc1ccc(OC(F)(F)F)cc1)C(=O)c1ccccc1SCC(=O)N1CCCC1

The listing continues.
FGF22 binding	Vif A3G	AF4-AF9 inh	UCH37 inh	RanGTP-Imp inh	Ecoli growth	HNF4A DNA FP	Compound
+	-11%	-1.3	2.6	?	0.67	1.2	O=C(CSc1nc2ccccc2o1)Nc1nccs1
·	12%	·	5.5	5.4	0.75	1.5	COC(=O)c1ccc(CSc2nnc(NCc3ccccc3)s2)o1
i	·	-0.2	1.5	?	0.78	1.4	CCOc1ccc(NC(=O)[C@@H]2CCC(=O)N2C2OC(=O)c3ccccc32)cc1 (stereo not given in full)
i	·	0.5	2.5	1.5	0.65	·	COc1ccc(CCNC(=O)C2CCN(C(=O)c3ccccc3)CC2)cc1
i	13%	-2.0	·	3.2	·	6.6	O=C(O)COc1ccccc1/C=N/NC(=O)CN1CCN(Cc2ccc(Cl)cc2)CC1
i	0%	-7.1	·	·	·	4.9	Cc1ccc(NC(=O)c2cc(S(=O)(=O)N3CCCCC3)ccc2N2CCOCC2)cc1
i	5%	-0.3	5.8	-2.5	0.67	3.0	CC(C)NC(=O)c1cc2n(n1)C(C(F)(F)F)CC(c1ccco1)N2 (stereo not given)
·	·	·	4.8	1.4	0.64	-2.4	CC(C)OC(=O)c1ccc(NC(=O)c2ccccc2)cc1
i	·	2.1	·	-1.9	·	-0.7	Cc1nc(-c2ccc(Cl)cc2)sc1C1(C)CC(c2c(Cl)cccc2Cl)=NO1 (stereo not given)
i	-4%	-0.9	0.8	-2.8	0.73	2.2	CC(=O)NC(Cc1ccccc1C)C(=O)NC1CCN(C(=O)c2ccc(C)cc2)CC1 (stereo not given)
·	-2%	·	-0.4	-3.6	0.69	-0.4	CC(=O)Nc1ccc(S(=O)(=O)NCCSCc2ccc(Cl)cc2Cl)cc1
i	·	-0.8	·	·	·	-2.9	CC1=NN(c2ccccc2)C(=O)C1C(=S)SC1CC(=O)NC1=O (stereo not given)

The list goes on.
FGF22 binding	Vif A3G	AF4-AF9 inh	UCH37 inh	RanGTP-Imp inh	Ecoli growth	HNF4A DNA FP	Compound
i	·	0.0	0.8	2.2	0.66	2.4	O=C(CSc1nnc(-c2cccc(F)c2)o1)N1CCCC1
·	6%	·	1.6	8.8	0.68	-2.7	CCOC(=O)N1CCN(C(=O)CCS(=O)(=O)c2ccc(Br)s2)CC1
·	-13%	·	-2.6	1.7	0.73	-0.4	COc1cc2c(cc1NC(=O)CSc1nnnn1-c1ccccc1)oc1ccccc12
i	-7%	1.8	0.3	-3.7	0.64	3.1	COc1ccc(NS(=O)(=O)c2cccc(C(=O)NCCCn3ccnc3)c2)cc1
i	6%	-2.5	1.6	-1.5	0.69	-1.5	Cn1nc2sc3ccccc3n2c(=O)c1=O
i	·	1.0	6.7	1.8	0.68	-1.5	CC1CCN(S(=O)(=O)c2cccc(C(=O)NC3CCCCC3)c2)CC1
i	?	2.1	0.1	6.7	0.68	-1.1	CC(C)c1ccccc1NC(=S)NCc1nc2ccccc2[nH]1
i	·	-0.9	4.0	1.3	0.73	-4.0	COc1ccc(NC(=O)CSc2nc(C(C)C)nc3c2c(=O)n(C)c(=O)n3C)c(OC)c1
i	5%	1.5	-1.5	-1.3	0.74	-0.8	CCOc1ccccc1CNCCNCC(C)O (stereo not given)
i	10%	-2.8	·	-9.4	·	-0.1	CC(=O)N/N=C(/C)c1ccc(NC(=O)c2csc(C)c2C)cc1
·	11%	·	1.3	1.0	0.7	2.3	CCOC(=O)c1cc(C)sc1N1C(=O)C2C3C=CC(C3)C2C1=O (stereo not given)
i	-2%	3.8	·	·	·	-3.0	O=[N+]([O-])c1cccc(C=NN=C2c3ccccc3-c3ccccc32)c1

Next structures follow.
FGF22 binding	Vif A3G	AF4-AF9 inh	UCH37 inh	RanGTP-Imp inh	Ecoli growth	HNF4A DNA FP	Compound
i	·	1.0	·	·	·	1.3	COc1cccc(-c2cnc3c(NC(C)=O)cc(-c4cccc(C(=O)NCCO)c4)cn23)c1
i	?	-6.3	2.0	-8.4	0.65	-10	Cc1cc2cc(C=C(C#N)C#N)c(Cl)nc2cc1C
·	-1%	·	4.7	?	0.69	1.4	COC(=O)c1cccc(NC(=O)C2COc3ccccc3O2)c1C (stereo not given)
·	-2%	·	4.6	3.0	0.71	-1.9	COc1ccc(N(CC(O)Cn2c(C)nc3ccccc32)S(=O)(=O)c2ccc(C)cc2)cc1 (stereo not given)
i	3%	-3.4	3.6	3.1	0.68	1.8	COc1ccc(OCc2nc(-c3ccc(F)c(F)c3)cs2)cc1
i	1%	2.2	4.5	-1.6	0.68	2.4	O=C(c1ccc(Cl)cc1)C1CCCN(Cc2ccc(Oc3ncccn3)cc2)C1 (stereo not given)
i	-6%	-1.3	1.6	·	0.71	0.2	NS(=O)(=O)c1cc(C(=O)OCC(=O)Nc2ccc3c(c2)OCO3)ccc1Cl
·	?	·	0.1	3.6	0.72	-1.6	COc1ccc(OCC(O)COc2ccc(OC)cc2)cc1
i	-3%	0.1	1.1	·	0.72	8.8	O=C(NCC(c1ccco1)N1CCCC1)c1cccc(NS(=O)(=O)c2ccccc2)c1 (stereo not given)
i	3%	-0.6	6.2	-0.6	0.68	0.7	CCn1c(SCC(=O)N2CCCC2)nc2c(c1=O)SCC2
·	13%	·	3.4	2.9	0.76	-0.8	O=C1CC(N2CCOCC2)C(=O)N1c1ccc2c(c1)OCO2 (stereo not given)
i	-3%	4.4	1.3	·	0.72	1.8	COc1ccc(NC(=O)CC(C)c2ccccc2)cc1S(=O)(=O)N1CCOCC1 (stereo not given)

Additional structures:
FGF22 binding	Vif A3G	AF4-AF9 inh	UCH37 inh	RanGTP-Imp inh	Ecoli growth	HNF4A DNA FP	Compound
i	?	-59	0.8	-0.3	0.66	-0.8	COc1ccc2c(c1)[nH]c1c(=O)n(CCN3CCOCC3)cnc12
i	?	0.8	2.3	0.5	0.7	-0.9	COc1ccccc1N(C)S(=O)(=O)c1ccc(Cl)c(C(=O)OCc2c(C)noc2C)c1
i	21%	·	3.4	-1.6	0.62	-1.2	O=C(C[n+]1ccc2c(c1)nnn2-c1ccccc1)c1ccc(Cl)cc1
·	2%	·	0.3	3.5	0.69	0.0	O=C(COc1ccccc1Br)NCCc1nc2ccccc2[nH]1
·	-11%	·	3.7	0.9	0.71	0.2	N=C1C(c2nc(-c3ccc(F)cc3)cs2)=C(O)CN1Cc1ccc(Cl)cc1
i	0%	-2.4	2.7	-3.9	0.71	3.0	CNC(=O)CSc1nnc(NC(=O)C2CC(=O)N(c3ccccc3OC)C2)s1 (stereo not given)
·	-2%	·	0.2	·	0.73	1.3	COc1ccc(CNC(=O)Cc2nn(C)c(=O)c3ccccc23)cc1
i	-2%	2.2	6.6	2.8	0.61	1.1	O=C(c1ccccc1)c1ccc(OCC(O)CNCc2cccc(Cl)c2)cc1 (stereo not given)
i	·	2.8	·	·	·	-0.1	CC(C)(C)C(=O)c1c(N)[nH]c(C(=O)c2ccccc2)c1-c1ccc(C(F)(F)F)cc1
i	·	-0.4	1.5	·	0.79	-1.6	C=CC[C@@H](CC(=O)OC(C)(C)C)C(=O)OC[C@H]1CCCN1C(=O)[C@@H](CC=C)CC(=O)N[C@H](CO)Cc1ccccc1
·	-9%	·	4.9	4.2	0.7	-0.7	COc1ccc(CCNC(=O)c2cc(-c3ccc(C)c(C)c3O)n[nH]2)cc1OC
i	-2%	-0.1	4.6	?	0.66	5.0	Cc1ccccc1C(=O)OC1OC(=O)C(Cl)=C1Nc1ccccc1 (stereo not given)

(further entries)
FGF22 binding	Vif A3G	AF4-AF9 inh	UCH37 inh	RanGTP-Imp inh	Ecoli growth	HNF4A DNA FP	Compound
i	6%	-31	3.8	4.6	0.66	2.1	COc1ccc(C2C(C(=O)O)CCC(=O)N2c2ccc(OC)cc2)cc1 (stereo not given)
i	·	2.6	1.8	-1.4	0.7	-0.9	Fc1ccc(NC(=S)N2CCN(C/C=C/c3ccccc3)CC2)c(F)c1
i	-2%	-16	1.7	8.3	0.69	2.0	CCOC(=O)N(C)S(=O)(=O)c1ccccc1[N+](=O)[O-]
i	·	?	·	-2.7	·	3.6	COc1cc(NC(=O)Cc2ccc(OC)c(S(=O)(=O)N3CCOCC3)c2)c(OC)cc1Cl
i	·	8.1	6.4	6.1	0.7	1.0	CN1CCN(c2ccc(NC(=O)c3cc([N+](=O)[O-])ccc3N3CCOCC3)cc2)CC1
i	-3%	-3.8	-0.8	-3.0	0.65	3.1	COc1ccccc1/C=C/CN1CCCCC1
i	27%	·	6.1	-2.0	0.67	-3.0	O=C(O)c1ccccc1C(=O)Nc1ccc(Br)c(C(F)(F)F)c1
·	-4%	·	0.1	1.2	0.72	1.0	CCOc1ccc(Cc2nn[nH]n2)cc1
·	1%	·	6.2	-1.5	0.65	-2.6	COc1ccccc1-c1cc(C(=O)NCc2ccc(Cl)cc2)no1
i	·	-0.8	0.3	2.4	0.67	·	COc1ccc(C(=O)NC(=S)NNC(=O)c2cccc(C)c2)cc1
·	33%	·	5.8	3.2	0.8	-1.2	Clc1ccc(Cn2ncc3c(N4CCOCC4)ncnc32)cc1
i	·	38*	16	1.7	0.61	3.2	CN(CCCC(=O)O)c1ccc(N=Nc2ccc([N+](=O)[O-])cc2)cc1
i	2%	6.9	3.0	3.8	0.72	-3.9	O=C(CSc1nc2c(cnn2-c2ccccc2)c(=O)[nH]1)N1CCCCC1

Looked up by structure from above:
FGF22 binding	Vif A3G	AF4-AF9 inh	UCH37 inh	RanGTP-Imp inh	Ecoli growth	HNF4A DNA FP	Compound
i	·	38*	16	1.7	0.61	3.2	CN(CCCC(=O)O)c1ccc(N=Nc2ccc([N+](=O)[O-])cc2)cc1
·	33%	·	5.8	3.2	0.8	-1.2	Clc1ccc(Cn2ncc3c(N4CCOCC4)ncnc32)cc1
i	-2%	-16	1.7	8.3	0.69	2.0	CCOC(=O)N(C)S(=O)(=O)c1ccccc1[N+](=O)[O-]
i	6%	-31	3.8	4.6	0.66	2.1	COc1ccc(C2C(C(=O)O)CCC(=O)N2c2ccc(OC)cc2)cc1 (stereo not given)
·	-4%	·	0.1	1.2	0.72	1.0	CCOc1ccc(Cc2nn[nH]n2)cc1

High-throughput results: PubChem, several laboratories
